High-throughput results: PubChem BioAssay, National Center for Advancing Translational Sciences (NCATS)
GLA inh pH 4.5: inhibitors of human alpha-galactosidase A at pH 4.5; P06280; purified enzyme, 4-MU-alpha-Gal fluorescence, pH 4.5; activity change, negative = inhibition, % at 105 µM; 230,000 tested, under 10 active; inconclusive = small, poorly fitted or top-dose-only inhibition, or a rising curve; inactive = flat fitted curve, though single readings scatter; no compound was filed as active;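 note: 0% = full activity with enzyme and -100% = basal without enzyme; dose as in the result columns while the protocol names 77 µM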
Target sequence (P06280 whole entry, looked up): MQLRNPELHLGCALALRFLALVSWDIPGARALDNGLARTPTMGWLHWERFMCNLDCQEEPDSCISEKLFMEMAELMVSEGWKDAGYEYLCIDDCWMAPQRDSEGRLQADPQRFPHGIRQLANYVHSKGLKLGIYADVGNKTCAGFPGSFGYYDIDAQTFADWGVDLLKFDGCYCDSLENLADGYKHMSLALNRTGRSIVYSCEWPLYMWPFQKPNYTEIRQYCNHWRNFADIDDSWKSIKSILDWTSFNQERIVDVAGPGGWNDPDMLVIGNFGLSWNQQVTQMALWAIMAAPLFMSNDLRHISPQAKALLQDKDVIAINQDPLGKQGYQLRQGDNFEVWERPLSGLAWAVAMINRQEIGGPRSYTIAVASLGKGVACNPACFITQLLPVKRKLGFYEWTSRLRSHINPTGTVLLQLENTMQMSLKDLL
Rango release inh: prevents RanGTP from dissociating the Rango-importin beta complex; Potency, µM (doses to about 46.1 µM), for inactives: at the highest dose activity change, negative = inhibition; O95149+P62826; 340,000 compounds, 0.071% hits; Biochemical FRET Rango-importin beta, RanGTP-induced dissociation; active means falling FRET ratio curve, often poorly fitted, with flat reads before Ran was added; inconclusive means other falling curves, or compound fluorescence or quenching; inactive means flat or rising ratio curve;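 note: potency is the fitted concentration of half-maximal effect; % of control where 0% means no effect; nearly all actives have a fitted effect of over 45% in size; -100% = wells without RanGTP and RCC1; the record marks most hits as doubtful in a second field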
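FRET read at 45 min, room temperature: inhibitors block the CFP/YFP signal rise when RanGTP (0.6 uM Ran, 2 mM GTP, 0.2 uM RCC1) frees Rango (0.1 uM) from importin beta (0.25 uM). Pre-read after 5 min compound exposure flags interference.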
Rango-impB inh: prevents formation of the Rango-importin beta complex | Q14974 | Rango CFP/YFP FRET sensor + importin beta, 45 min | Potency, µM (highest dose often 92.2 µM), for the others: top-dose inhibition of complex formation | 340,000 compounds, 0.031% hits; active = rising FRET ratio curve, often small or poorly fitted; inconclusive = mostly compound fluorescence or quenching in the first reads; inactive = flat curves in all reads;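 note: potency is the fitted concentration of half-maximal effect; 0% = DMSO wells and 100% = buffer wells lacking importin beta; nearly all actives have a fitted effect of over 15% in size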
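Inhibition scored from the CFP 486 nm/YFP 530 nm FRET ratio 45 min after adding 0.125 microM importin beta to 50 nM Rango biosensor preincubated 5 min with compound (room temperature, PBS with DTT, Tween-20, BSA). No-importin wells as positive control.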
miR-21 reporter: miR-21 reporter, rising signal; AID 2288; 340,000 tested, under 10 active; Potency, µM (titrated, usually from 38.3 µM), for inactives: top-dose reporter change, positive = more light; HeLa miR-21 FLuc reporter, luciferase, 48 h; active = well fitted rising curve with a large enough effect; inconclusive = small, poorly fitted or top-dose-only effect; inactive = no such curve, though single readings can be large or run the other way;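 note: % of control where 0% means no effect; miR-21 action dims this reporter so a rising signal means less miR-21 action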
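Luminescence from a firefly luciferase reporter carrying a miR-21 binding site downstream, stably expressed under a CMV promoter in HeLa cells that make miR-21 endogenously, reports miRNA modulation after 48 h compound exposure up to approximately 40uM final.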
Active calls of the source: *; ? = inconclusive; nt = not tested or not shown; & = joins results of further samples. Not all compounds are listed. The share of hits here may be higher or lower than overall.

Start of the data: the first 6 records, ahead of the listing:
SMILES | GLA inh pH 4.5 | Rango release inh | Rango-impB inh | miR-21 reporter
CCOC(=O)N/N=C/c1cn(Cc2ccccc2Cl)c2ccccc12 | -13 | 10% | -0.7% | 3%
c1ccc(C2=NNC(c3ccccn3)=NN2)nc1 | nt | -18% | ? | -45%
Cc1oc(-c2ccccc2Cl)nc1CS(=O)CC(=O)NCc1ccccc1Cl (configuration not stated) | nt | 11% | 0.0% | -5%&-4%
Cc1cc2c(c(=O)n1C)C(C(C)C)C(C#N)=C(N)O2 (configuration not stated) | 4 | 7% | 0.3% | -1%
CCOC(=O)c1c(C)[nH]c(C(=O)C(C)Cl)c1C (configuration not stated) | 7 | 13% | 0.7% | 1%
COc1cc(C(=S)N2CCCCC2)ccc1OCC(=O)Nc1ccc(F)cc1 | nt | -8% | -1.9% | 16%

The listing (from the top)
SMILES | GLA inh pH 4.5 | Rango release inh | Rango-impB inh | miR-21 reporter
CCOC(=O)N/N=C/c1cn(Cc2ccccc2Cl)c2ccccc12 | -13 | 10% | -0.7% | 3%
c1ccc(C2=NNC(c3ccccn3)=NN2)nc1 | nt | -18% | ? | -45%
Cc1oc(-c2ccccc2Cl)nc1CS(=O)CC(=O)NCc1ccccc1Cl (configuration not stated) | nt | 11% | 0.0% | -5%&-4%
Cc1cc2c(c(=O)n1C)C(C(C)C)C(C#N)=C(N)O2 (configuration not stated) | 4 | 7% | 0.3% | -1%
CCOC(=O)c1c(C)[nH]c(C(=O)C(C)Cl)c1C (configuration not stated) | 7 | 13% | 0.7% | 1%
COc1cc(C(=S)N2CCCCC2)ccc1OCC(=O)Nc1ccc(F)cc1 | nt | -8% | -1.9% | 16%
COc1ccc(-c2cc(C(=O)N3CCCCC3)c3ccccc3n2)cc1 | nt | -8% | 3.9% | nt
Cc1cc(C(=O)N2CCOCC2)ccc1[N+](=O)[O-] | -2 | 0% | -5.0% | -3%
Cc1c(NC(=O)c2cccc(S(=O)(=O)N(C)c3ccccc3)c2)c(=O)n(-c2ccccc2)n1C | nt | 2% | 4.8% | nt
CC(=O)N1CCN(C(=O)COC(=O)c2ccc(S(C)(=O)=O)cc2)CC1 | nt | 2% | 2.6% | nt
COC(=O)CNC(=O)COc1ccccc1 | -4 | 21% | ? | -7%
Cc1ccc(-c2cc(C(=O)N3CCN(C(=O)c4ccco4)CC3)[nH]n2)cc1C | nt | 1% | 2.3% | -11%
CC(NC(=O)c1ccccc1Br)C1CC2CCC1C2 (configuration not stated) | nt | 6% | 0.0% | nt
O=C1CN(C(=O)OCc2ccccc2)c2ccccc2N1 | 2 | 0% | 3.7% | -59%
Cc1cccc(N(CC(=O)NCc2ccco2)C(=O)CCC(=O)Nc2ccccn2)c1 | -3 | 1% | -1.4% | -1%
CCCCCCCCCCSc1n[nH]c(N)n1 | 0 | 8% | 0.1% | -26%
Cc1cccc(CCNC(=O)CC2C(=O)NCCN2Cc2ccccc2C)n1 (configuration not stated) | nt | -9% | ? | -3%
CCN(CC)C(=O)CSc1ccccc1N | -9 | 0% | 0.2% | 0%
COc1cc2nc(NCCCN3CCN(C)CC3)n3nc(-c4ccccc4)nc3c2cc1OC | 1 | 17% | 2.1% | 2%
CCOc1ccc(OCC(=O)Nc2ccc(S(=O)(=O)Nc3cc(C)nc(C)n3)cc2)cc1 | -7 | 2% | -2.8% | -5%
Cc1noc(C)c1C(=O)NCCc1ccc(Cl)cc1 | -13 | 1% | -4.5% | -6%
O=C(c1cccc([N+](=O)[O-])c1)N1CCN(Cc2ccc3c(c2)OCO3)CC1 | 12 | -12% | 0.3% | 2%
C/C=C/C(=O)OCc1csc(CC(=O)Nc2ccccc2C)n1 | nt | -1% | -1.7% | 0%
COc1ccc(/C=C(\C#N)C(=O)OCC(=O)NCc2ccco2)cc1 | nt | -12% | -3.8% | 1%
CCOC(=O)c1csc(NC(=O)c2ccc(C#N)cc2)n1 | 3 | -1% | -2.1% | 6%

(more compounds)
SMILES | GLA inh pH 4.5 | Rango release inh | Rango-impB inh | miR-21 reporter
COc1cc2ccccc2cc1C(=O)N1CCN(C(C)=O)CC1 | nt | 15% | 6.4% | 0%
COc1ccc(C(=S)N2CCOCC2)cc1OS(=O)(=O)c1ccc(Br)cc1 | nt | 7% | 4.1% | 4%
COc1ccc(CCNc2nncc(=O)[nH]2)cc1OC | 4 | 36% | -3.0% | -7%
CN(Cc1ccccc1)C(=O)c1ccc(NC(=O)Cc2ccc(NC(=O)C3CCCN(C(=O)C4CCCCC4)C3)cc2)cc1 (configuration not stated) | nt | ? | 0.5% | nt
Cc1csc(NC(=O)Cn2cnnn2)n1 | 3 | -1% | 6.8% | 0%
Cc1ccc(N2C(=O)C3C=NNC3C2=O)cc1 (configuration not stated) | 11 | -4% | -2.1% | 0%
C=CC[C@@H](Cc1ccc(F)cc1)C(=O)OC[C@@H]1CCCN1C(=O)[C@@H](CC=C)CC(=O)NCCO | nt | 1% | -0.3% | nt
COC(=O)c1c(CCl)noc1C(=O)NC(C)C | 3 | 25% | 8.3% | 18%
Cc1oc(-c2cc(F)ccc2F)nc1CN1CCN(C)C(=O)[C@@H]1C | 6 | 1% | 5.2% | -2%
Cc1ccc2c(c1)cc(CN(Cc1ccc3c(c1)OCO3)S(=O)(=O)c1ccccc1)c1nnnn12 | 3 | 8% | 0.8% | 0%
Oc1ccc(-c2csc(Nc3ncccn3)n2)c(O)c1 | 0 | 0% | 0.1% | -34%
COc1ccc(Cc2nnc(-c3cccc(C)c3)o2)cc1OC | 5 | 7% | -1.3% | -48%
Cc1ccc(CN2CCCN(Cc3c(F)cccc3Cl)S2(=O)=O)cc1 | nt | 24% | 3.9% | -2%
CCOC(=O)NC(=O)/C(C#N)=C\NNc1ncc(C(F)(F)F)cc1Cl | 3 | 1% | 4.0% | 2%
C/C(=N\Nc1nc(C(C)(C)C)cs1)c1ccccc1 | nt | -16% | -0.7% | -29%
COc1cc(OC)c(NC(=S)Nc2cccc(C)c2)cc1Cl | -4 | 28% | 2.3% | 3%
CC(=O)Nc1ccc(S(=O)(=O)NCC2CCC(C(=O)NC(C)c3ccc4c(c3)OCCO4)CC2)cc1 (configuration not stated) | -3 | nt | nt | -3%
Cc1ccccc1C(=O)Nc1cccc(NC(=O)c2ccccc2[N+](=O)[O-])c1 | nt | 8% | -0.4% | -4%
Cc1ccc(NC(=S)Nc2ccc3cn[nH]c3c2)cc1 | 0 | -20% | -0.8% | -34%
COc1ccccc1N1CCN(c2ccc(N3C(=O)CCC3=O)cc2[N+](=O)[O-])CC1 | -10 | -4% | -3.2% | -4%
O=C(NC1CCCCCC1)C1CCN(C(=O)c2cccc(Cl)c2)CC1 | nt | -2% | 2.6% | 3%
Cc1cccc(Cc2nnc(CCC(=O)N(C)Cc3ccncc3C)o2)c1 | 0 | 17% | -8.4% | -5%
COC(=O)c1ccc2c(=O)sc(N3CCC(C(N)=O)CC3)nc2c1 | 4 | ? | ? | 1%
CC1=C(C(=O)Nc2ccccc2)C(c2ccc(O)cc2)N2C(=O)CSC2=N1 (configuration not stated) | 0 | -15% | -3.2% | -7%
COc1ccccc1N1C(=O)c2ccccc2NC1c1ccncc1 (configuration not stated) | -10 | 1% | -0.7% | -4%

Additional records follow.
SMILES | GLA inh pH 4.5 | Rango release inh | Rango-impB inh | miR-21 reporter
N#Cc1cccc(OC(=O)c2ccc3c(=O)n4c(nc3c2)CCC4)c1 | nt | 19% | -1.7% | nt
O=C(C1CC(=O)N(C2CCCC2)C1)N1CCN(c2cccc(Cl)c2)CC1 (configuration not stated) | nt | ? | 1.7% | 7%
CC1SCC(=NOCc2ccccc2)CS1 (configuration not stated) | 2 | 26% | -0.1% | -52%
O=C(CCCCl)Oc1ccc2cc(-c3ccc4ccccc4n3)c(=O)oc2c1 | -1 | ? | ? | -39%
CCN1CCN(c2ccc(NC(=O)c3cccc(OCc4ccccc4)c3)cc2)CC1 | -4 | -6% | 0.1% | -2%
CN(CCc1ccccn1)C(=O)CN(C)S(=O)(=O)c1ccc2c(c1)c(=O)n(C)c(=O)n2C | 1 | 31% | -0.2% | 0%
c1ccc(Cn2c(SCCN3CCOCC3)nnc2-c2cccnc2)cc1 | 0 | 11% | 0.7% | -14%
CCOC(=O)CCSc1nc(N2CCOCC2)c2c(c1C#N)CC(C)(C)OC2 | nt | -2% | -0.6% | -4%
Cc1ccc(NC(=O)Cn2cnc3cc([N+](=O)[O-])ccc3c2=O)cc1 | 0 | -26% | ? | -2%
O=C(CN1C(=O)/C(=C/c2ccco2)SC1=S)Nc1ccc(O)c(C(=O)O)c1 | nt | -30% | 0.8% | 0%
COc1ccccc1/C=N/NC(=O)c1ccc(N(C)S(=O)(=O)c2ccccc2)cc1 | -7 | 17% | 2.7% | 0%
CC(C)[C@H](NC(=O)OC(C)(C)C)c1nnc(SCc2cccc(F)c2)o1 | 1 | 5% | 3.1% | 10%
Cc1ccc2cc(CN(c3ccccc3C)S(=O)(=O)c3ccccc3)c(=O)[nH]c2c1 | nt | 1% | 1.1% | -4%
O=C(c1cc(COc2ccc(F)cc2Cl)on1)N1CCC(OCc2cccnc2)CC1 | 0 | -2% | -2.7% | 10%
Cc1cc(C)cc(NC(=O)C(OC(=O)C2=COCCO2)c2ccccc2)c1 (configuration not stated) | 9 | -2% | -0.2% | 6%
Cn1nnnc1SCC(=O)c1c(N)n(C2CC2)c(=O)[nH]c1=O | nt | -10% | 2.1% | nt
COc1ccc(OC)c(NC(=O)CCC(=O)N(Cc2ccc(OC)c(OC)c2)c2nccs2)c1 | -6 | 0% | -0.9% | -1%
O=c1[nH]c(NC2CCCCC2)c([N+](=O)[O-])c(=O)[nH]1 | 0 | -3% | -0.6% | -1%
COc1ccc(NC(=O)CN2CCN(CC(=O)Nc3ccccc3Cl)CC2)c(OC)c1 | -2 | -2% | -1.3% | 1%
Cc1ccc(CNC(=O)c2ccccc2SCC(=O)NCC2CCCCC2)cc1 | 0 | 1% | -0.1% | 2%
C/C(=N\NC(=O)c1ccc(N)cc1)C1CC1 | nt | 1% | -1.3% | -28%
c1ccc(N2CCN(c3c4c(nc5ncnn35)CCC4)CC2)cc1 | 9 | 19% | -0.5% | -11%
CCN(CC)c1ccc2nc3c4ccccc4c(=O)cc-3oc2c1 | nt | 5% | 2.9% | -58%
Cc1ccc(N(C(C)C(=O)O)S(=O)(=O)c2c(C)n[nH]c2C)cc1 (configuration not stated) | -14 | -1% | 0.5% | -3%
Cc1ccc(-n2c(C)cc(=O)cc2C)cc1[N+](=O)[O-] | nt | -1% | 1.5% | 0%

Additional records.
SMILES | GLA inh pH 4.5 | Rango release inh | Rango-impB inh | miR-21 reporter
CCN(CC)CCCNC(=O)Cn1ncn2cccc2c1=O | 4 | 0% | 1.2% | -6%
CCc1nnc(NC(=O)CSc2nnc(-c3ccccc3O)n2-c2ccc(C)cc2)s1 | 13 | 18% | -0.9% | 24%
Cn1c(=O)oc2cc(S(=O)(=O)N3CCC(C(=O)NCc4ccccc4)CC3)ccc21 | nt | 6% | 0.8% | -1%&1%
Nc1nc(NC(=O)C(Cl)(Cl)Cl)nn1-c1ccccc1 | 6 | 4% | -8.0% | 6%
CC1(C)CC2CC(C)(CN2S(=O)(=O)c2cccc(C(=O)OCC(N)=O)c2)C1 (configuration not stated) | nt | 13% | -2.4% | nt
COc1ccc(-c2cc(=O)oc3cc(OC(C)C(=O)Nc4ccc(CN5CCOCC5)cc4)ccc23)cc1 (configuration not stated) | nt | 8% | 1.6% | 3%
COc1ccc(-c2nc(C)sc2CC(=O)O)cc1OC | 6 | 0% | -1.3% | -2%
O=C1CCc2cc(S(=O)(=O)N3CCC(C(=O)NCc4ccccn4)CC3)ccc2N1 | 3 | nt | nt | -10%
CC(=O)Nc1ccc(-c2csc(-c3cccnc3)n2)cc1 | nt | -9% | -3.9% | -62%
Cn1c(SCC(=O)NCc2ccc3c(c2)OCO3)nnc1-c1c[nH]c2ccccc12 | 1 | 0% | 2.4% | -8%
O=C(NCc1cccnc1)c1cn(CCc2ccccc2)nn1 | 5 | 1% | -4.6% | -3%
COc1cccc(NC(=O)COC(=O)CCS(=O)(=O)c2ccc(C)cc2)c1 | 1 | 3% | -0.7% | -14%
O=C(c1cc(Sc2ccc(Cl)cc2)nc2ccccc12)N1CCN(c2ccccn2)CC1 | -8 | 1% | -0.6% | 17%
